PINK1 modulator – modulators of PINK1 expression; Potency, µM (top dose mostly 76.6 µM), without a hit: at the top dose activation (PINK1 increase), actives largely listed as activators; PINK1 immunofluorescence, high-content cytometry, 24 h; 0.2% of 410,000 active; active = well fitted activation curve with a large enough effect; inconclusive = small, poorly fitted or top-dose-only effect; inactive = flat fitted curve, though single readings scatter; cell line not stated here;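 also: potency is read from the fitted curve at half-maximal effect; % of control where 0% means no effect; nearly all actives have a fitted effect of over 65% in size; a mitochondrial uncoupler was the plate control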
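Stable cell line treated 24 h with compounds at 5 concentrations (CCCP controls), then fixed and immunostained for PINK1 plus nuclear and cell stains; PINK1 immunofluorescence quantified by laser-scanning microplate cytometry.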
TRPV1 potentiator – enhances activation of the human vanilloid receptor TRPV1. Q8NER1. TRPV1-expressing cells, Fluo-8 calcium influx, capsaicin EC20 potentiation; host cell line not named in the record; control for the full effect not named in the record. potentiation, % at 8.33 µM. 0.02% of 320,000 active; active means potentiation above 80%; inconclusive means 30% to 80%; inactive means below 30%; also: 0% is about no effect
Target sequence (Q8NER1 whole entry, looked up): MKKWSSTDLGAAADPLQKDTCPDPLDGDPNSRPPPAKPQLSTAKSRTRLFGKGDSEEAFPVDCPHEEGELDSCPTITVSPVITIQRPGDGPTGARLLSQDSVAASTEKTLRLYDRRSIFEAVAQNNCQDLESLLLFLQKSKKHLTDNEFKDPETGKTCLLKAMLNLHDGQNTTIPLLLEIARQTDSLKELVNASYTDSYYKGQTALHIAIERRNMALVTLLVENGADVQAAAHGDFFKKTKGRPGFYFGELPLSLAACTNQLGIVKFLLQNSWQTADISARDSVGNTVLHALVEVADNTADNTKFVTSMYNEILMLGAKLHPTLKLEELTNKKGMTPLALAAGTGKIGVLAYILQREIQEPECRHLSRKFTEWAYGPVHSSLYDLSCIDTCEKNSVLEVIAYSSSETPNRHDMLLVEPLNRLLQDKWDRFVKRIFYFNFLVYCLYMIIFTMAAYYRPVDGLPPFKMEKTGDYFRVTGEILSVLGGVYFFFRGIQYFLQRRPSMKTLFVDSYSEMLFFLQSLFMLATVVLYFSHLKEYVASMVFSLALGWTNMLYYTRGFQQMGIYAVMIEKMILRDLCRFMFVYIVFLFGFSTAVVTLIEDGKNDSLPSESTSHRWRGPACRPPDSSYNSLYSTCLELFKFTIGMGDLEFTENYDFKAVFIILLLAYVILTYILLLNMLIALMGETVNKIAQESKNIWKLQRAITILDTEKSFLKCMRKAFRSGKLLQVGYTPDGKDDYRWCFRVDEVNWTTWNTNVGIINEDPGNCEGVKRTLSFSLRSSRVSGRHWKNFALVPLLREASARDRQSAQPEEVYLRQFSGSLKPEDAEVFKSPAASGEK
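Cells expressing TRPV1 were dye-loaded with Fluo-8 and read kinetically: 10 s baseline, 3 min after compound (agonist portion), then 2 min after EC20 capsaicin (allosteric enhancer portion). Calcium-bound dye fluorescence at 480/520 nm.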
Six1-Eya2 inh – inhibitors of human Six1/Eya2 interaction. AlphaScreen GST-Six1/His-Eya2 binding, biochemical; active compounds read low; control for the full effect not named in the record. activity change, % (test concentration not listed). 0.56% of 360,000 active. AID 651725; in the data active = activity change below about -65%; inconclusive = about -30% to -65%; inactive = above about -30%; also: % is scaled to controls: 0 for no effect and ±100 for the full control effect
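GST-Six1 + His-Eya2 (5X stock: 250/500 nM); Tris pH 8.0, 300 mM NaCl, 0.05% BSA, 0.02% Tween 20; GSH donor/Ni acceptor beads; 1 h 37 °C dark; AlphaScreen readout.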
D2 ag – human D2 receptor agonism in beta-arrestin assay; DiscoveRx PathHunter D2 beta-arrestin, luminescence, 90 min; 100% = 57 uM dopamine signal; activation, % (test concentration not listed); 0.084% of 360,000 active; AID 624465; in the data active = activation above about 40%; inconclusive = about 15% to 40%; inactive = below about 15%; also: compound concentration not given in the record; the text of the record calls up to 30% inactive
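DiscoveRx PathHunter D2 beta-arrestin cells (2,100/well) attached overnight, then compound-stimulated 90 min at 37 C in HBSS/10 mM HEPES/0.1% Tween-20 buffer; beta-galactosidase complementation read by luminescence after 1 h at ambient temperature. Dopamine 57 uM final (EC100) as control.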
CtBP-E1A blk – inhibitors of CtBP/E1A interaction; activity change, % (concentration not given with the values); AID 651724; 0.49% of 340,000 active; AlphaScreen GST-E1A/His-CtBP binding, 1536-well; active compounds read low; control for the full effect not named in the record; in the data active means activity change below about -65%; inconclusive means about -30% to -65%; inactive means above about -30%; also: % is scaled to controls: 0 for no effect and ±100 for the full control effect
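In 5 uL wells, 23 nL compound meets equimolar GST-E1A and His-CtBP (5X stock 125 nM each) for 2 h, 37 °C. Beads (5X, 50 ug/mL) then 1 h, 37 °C, dark.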
D2 potentiator – positive allosteric modulators of human D2 dopamine receptor; P14416; DiscoveRx D2 beta-arrestin cells, luminescence, 90 min; 100% = 57 uM dopamine signal; potentiation, % (test concentration not listed); 0.23% of 360,000 active; active = potentiation of 50% or more; inconclusive = 30% to 50%; inactive = 30% or less;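 also: compound concentration not given in the record; tested on top of an EC20 dose of dopamine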
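PathHunter D2 cells, attached overnight at 37 deg C, received compound in DMSO plus dopamine at EC20 (50 nM final) for 90 min at 37 deg C. Beta-arrestin recruitment was read as luminescence after 1 h with detection reagent at ambient temperature.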
Sfp inh – inhibitors of Bacillus subtilis Sfp phosphopantetheinyl transferase | Q9F4F7 | 3.5% of 310,000 active | AID 1490 | Potency, µM, for the others: max response, negative = inhibition, actives largely listed as inhibitors | Biochemical Sfp PPTase activity, qHTS; active = well fitted inhibition curve with a large enough effect; inconclusive = small, poorly fitted or top-dose-only effect, or another doubt; inactive = no such curve, though single readings can be large or run the other way;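 also: the enzyme is Sfp with the accession as filed and its product quenches rhodamine fluorescence; potency is read from the fitted curve at half-maximal effect; 0% = enzyme reaction without inhibitor and -100% = no enzyme wells; top concentration of the series not given in the record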
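Sfp 15 nM + cpd, 15 min RT; start w/ rhodamine-CoA 5 uM, BHQ-2-YbbR 12.5 uM (final); 50 mM Hepes pH 7.6, 10 mM MgCl2, 0.01% NP-40, 0.01% BSA; read 525/598 nm at 0 and 30 min.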
Active calls of the source: *; ? = inconclusive; nt = not tested or not shown; & = joins results of further samples; [ ] = remark or other dose. Random draw from the library, and some 3.7% of all compounds hit somewhere here.

SMILES	PINK1 modulator	TRPV1 potentiator	Six1-Eya2 inh	D2 ag	CtBP-E1A blk	D2 potentiator	Sfp inh
CC(C)(C)c1cc(-c2nc(N)nc(N)n2)c(O)c(C(C)(C)C)c1	-0.6%	12	-5	2.3	0	5	nt
COc1ccc(N2CC(C(=O)OCC(=O)Nc3cccc(C)c3C)CC2=O)cc1 (stereo not given)	1.1%	1	7	3.8	-14	2	24%
COc1ccc(N(CC(=O)NC2CCCC2)C(=O)Cn2nnc(-c3ccc(C)o3)n2)c(OC)c1	0.0%	5	1	0.0	2	4	11%
CCCCN(C(=O)C(C)N1C(=O)c2ccccc2C1=O)c1c(N)n(CC(C)C)c(=O)[nH]c1=O (stereo not given)	-0.8%	-8	7	1.0	-5	-8	nt
CC1(C)CC(N2CN(C3CCCCC3)CC2=O)CC(C)(C)N1	0.3%	4	13	-2.1	-5	5	13%
C/C(CC(=O)NCc1ccco1)=N\NC(=O)COc1ccc(Cl)cc1Cl	6.5%	2	0	-2.3	5	-11	4%
Cc1nc(Nc2ccc(C(=O)O)cc2)sc1-c1ccccc1	-0.1%	-4	5	0.1	5	2	15%
N#Cc1ccccc1NC(=O)COC(=O)c1c[nH]c2ccccc12	-0.2%	6	11	-1.4	-2	-13	nt
Cc1ccc(C2C(C=Nc3c(C)n(C)n(-c4ccccc4)c3=O)=C(c3ccccc3)Oc3ccccc32)cc1 (stereo not given)	0.4%	-4	-25	-6.2	-13	-10	13%
Cc1nc(C(=O)Nc2cc(Cl)ccc2Cl)nn1-c1cc(OC(C)C)c(Cl)cc1Cl	0.7%	7	4	4.9	3	3	16%
CCOC(=O)Nc1ccc2nc(N3CCCCCC3)sc2c1	12%	28	0	1.9	nt	-19	-5%
O=C/C(=C\Nc1ccc(Br)cc1)c1nc2ccccc2o1	2.5%	-4	7	-4.1	-11	-36	6%
Cc1ccc(S(=O)(=O)Oc2ccccc2/C=C2/SC(=O)NC2=O)cc1	-1.6%	5	-6	-1.9	4	-14	7%
O=C(CSc1nc2cc(Cl)ccc2o1)NC1CC1	-0.2%	nt	-1	4.2	nt	-2	nt
CCn1cc(Cl)c(C(=O)Nc2nc3ccccc3n2CCN2CCCCC2)n1	-1.7%	nt	-24	-11	-14	0	20%
CC(NC(=O)C(C)N1CCN(Cc2ccccc2)CC1)c1ccc(F)cc1 (stereo not given)	0.5%	-9	-2	-5.5	-3	-13	8%
Cc1ccc(S(=O)(=O)NCc2ccccc2)cc1C(=O)N(C)CC(=O)Nc1ccccc1Br	0.1%	nt	7	0.8	1	-3	nt
Cc1ccc(-n2ncc3c(NCc4cccnc4)ncnc32)c(C)c1	5.1%	-10	5	1.6	-2	6	-3%
CCn1c(SCC(=O)NC2CCCCC2)nnc1C(CO)NC(=O)c1ccccc1 (stereo not given)	0.1%	0	12	-2.6	-1	-16	11%
CC(=O)c1c(C(=O)O)c2ccccc2[nH]c1=O	1.1%	8	10	-3.8	nt	-13	2%
O=C(Nc1cccc(S(=O)(=O)N2CCOCC2)c1)c1cc([N+](=O)[O-])ccc1N1CCOCC1	0.9%	-15	-9	-1.8	2	-26	nt
O=C(Nc1cc2c(cc1Br)OCCCO2)c1cccnc1	0.6%	-16	-8	-1.2	4	-2	10%
COc1ccc(Oc2nc3ccccc3nc2C(F)(F)F)cc1	4.0%[38.3 µM]	20	23	1.2	26	-13	6%
COc1cc(CC(=O)Oc2ccc3c(c2)OCO3)cc(OC)c1OC	-1.0%	-17	-3	-2.0	-2	-9	6%
CCOC(=O)C1CN(S(=O)(=O)c2ccc(OC)cc2)c2ccccc2O1 (stereo not given)	4.7%	-9	20	-0.2	-18	-2	-8%

In a second layout: entries from further up.
CCCCN(C(=O)C(C)N1C(=O)c2ccccc2C1=O)c1c(N)n(CC(C)C)c(=O)[nH]c1=O (stereo not given)
  PINK1 modulator: -0.8% | TRPV1 potentiator: -8 | Six1-Eya2 inh: 7 | D2 ag: 1.0 | CtBP-E1A blk: -5 | D2 potentiator: -8 | Sfp inh: nt
CC1(C)CC(N2CN(C3CCCCC3)CC2=O)CC(C)(C)N1
  PINK1 modulator: 0.3% | TRPV1 potentiator: 4 | Six1-Eya2 inh: 13 | D2 ag: -2.1 | CtBP-E1A blk: -5 | D2 potentiator: 5 | Sfp inh: 13%
C/C(CC(=O)NCc1ccco1)=N\NC(=O)COc1ccc(Cl)cc1Cl
  PINK1 modulator: 6.5% | TRPV1 potentiator: 2 | Six1-Eya2 inh: 0 | D2 ag: -2.3 | CtBP-E1A blk: 5 | D2 potentiator: -11 | Sfp inh: 4%

Continuation:
SMILES	PINK1 modulator	TRPV1 potentiator	Six1-Eya2 inh	D2 ag	CtBP-E1A blk	D2 potentiator	Sfp inh
COc1cccc(-c2nn[nH]n2)c1O	0.5%	3	?	0.6	-27	-10	50µM*
Cc1ccc(Nc2c(N)c(=O)oc3ccccc23)cc1	6.7%	2	-6	-8.3	-6	-26	-22%
CSCc1c(C(=O)OCC(=O)c2ccc[nH]2)oc2ccccc12	4.4%	5	-10	1.7	-27	8	nt
CCCC(c1nnnn1Cc1cccs1)N1CCN(C2CCCC2)CC1 (stereo not given)	1.0%	-1	2	-4.3	2	-19	-3%
CNC(=S)NNC(=O)c1cn(C)nc1C	3.3%	19	9	-1.8	?	-2	79µM*
CCC1CCCCN1S(=O)(=O)c1ccc2[nH]c(=O)ccc2c1 (stereo not given)	0.4%	-2	-8	0.0	2	-3	4%
CC(=O)N1CCc2cc(S(=O)(=O)NCC(=O)NCc3ccc(Cl)cc3)ccc21	-1.9%	8	3	3.6	1	-1	10%
CC(=O)CC(=O)Nc1ccn(-c2ccccc2)n1	?	18	4	0.8	-2	-9	7%
O=[N+]([O-])c1ccc(O)c(N=Cc2sc3ccccc3c2O)c1	3.7%	4	0	-4.0	-2	1	-9%
COc1ccc(Cl)cc1N1C(=O)C2CCCN2C1c1ccc(F)cc1 (stereo not given)	1.7%	-26	-4	-1.6	1	-5	8%
COC(=O)c1cc(S(=O)(=O)Nc2ccsc2C(=O)OC)oc1C	-0.7%	16	0	-1.3	2	-5	9%
CCN=C1S/C(=C\c2cn(CC(=O)NCCOC)c3ccccc23)C(=O)N1CC	10%	-15	-1	0.2	8	8	-18%
O=C(CN1CCOCC1)Nc1cc(C(F)(F)F)ccc1Cl	4.3%	-9	12	-3.7	8	-30	1%
Nc1cc(OC(=O)c2cccs2)nn1S(=O)(=O)c1ccc(F)cc1	-1.4%	-4	?	-3.0	-6	-5	-16%
CSc1nnc2ccc(-c3ccccn3)nn12	1.6%	28	-2	-5.9	-5	6	17%
CC(Cc1nnc(SCC(=O)O)n1N)c1ccccc1 (stereo not given)	0.4%	26	18	-1.9	0	1	4%
Cc1nc2cc(-c3cccs3)nn2c(NCC(C)(C)CN(C)C)c1C	-0.3%	7	0	2.2	-6	-8	-3%
COc1ccc(Cn2c(=S)[nH]c3ccsc3c2=O)cc1	1.5%	-29	-2	-1.9	5	-11	-13%
COc1ccc(-n2nc(C(=O)N3CCCCC3)c(C)c(C#N)c2=O)cc1	0.5%	2	-6	0.9	2	5	19%
NC(=S)N/N=C/c1ccc(-n2nncc2-c2ccc(Cl)cc2)cc1	0.8%	5	-26	-5.0	-10	4	-2%
O=C1CC(c2ccco2)CC(O)=C1C=NCCN1CCNCC1 (stereo not given)	0.3%	14	0	-1.3	1	-1	-6%
O=C(NCc1ccccc1F)C1CC(=O)N(Cc2ccco2)C1 (stereo not given)	-1.2%	nt	1	0.2	4	-11	nt
CCNC(=O)C1CCCN(C(=O)c2ccc3c(c2)OCO3)CC1 (stereo not given)	1.2%	nt	0	-0.9	3	-7	nt
CCOc1ccc(NC(=O)CN(C)C(=O)Cc2n[nH]c(=O)c3ccccc23)cc1OCC	0.3%	-8	3	-1.7	3	-4	nt
Cc1nc(C(F)(F)F)ccc1C(=O)N1CCC1(C)C(=O)NS(=O)(=O)c1ccc(C(C)(C)C)cc1 (stereo not given)	2.4%	nt	0	-2.9	6	-4	nt

Going on with the list.
SMILES	PINK1 modulator	TRPV1 potentiator	Six1-Eya2 inh	D2 ag	CtBP-E1A blk	D2 potentiator	Sfp inh
COc1ccc(/C=C/C(=O)NC2CCCCCC2)cc1S(=O)(=O)N1CCOCC1	-2.2%	6	-1	-3.5	8	-2	5%
CCCNC(=O)c1cc(C2CCCN(C(=O)c3cc(F)ccc3C)C2)on1 (stereo not given)	-0.2%	nt	-4	-6.0	-4	-3	nt
Cc1ccc(CCNC(=O)c2nnn(-c3cccc(C)c3)c2N)cc1	0.7%	3	2	-1.4	5	15	-1%
COc1ccc(-c2csc(NCCc3nc4cc(Cl)c(N5CCCCC5)cc4n3CCOCCO)n2)cc1	0.6%	nt	-10	-2.4	-7	-14	nt
NC(=O)COC(=O)c1cc([N+](=O)[O-])ccc1NCCO	1.0%	6	2	-2.4	3	-5	28%
COC(=O)c1cc(C#N)c(OC)nc1C	-0.3%	-6	0	0.4	0	-5	11%
CCOC(=O)C1CCN(CCC(=O)Nc2cccc(C)c2)CC1	-0.6%	-12	-2	-4.3	6	-11	8%
CC(=O)Nc1ccc(S(=O)(=O)Nc2ccc(N3CCCCC3)cc2)cc1	?	nt	?	5.2	-14	-4	nt
COc1ccc(-c2cc(C(=O)OCC(=O)N3CCOCC3)c3ccccc3n2)cc1	4.2%	nt	-3	-1.7	0	-2	nt
Cc1ccccc1S(=O)(=O)Cc1ccc(C(=O)NCCc2ccccc2)o1	-0.1%&0.2%	-5	3	-5.1	0	-5	15%
O=C(c1sc2ccccc2c1Cl)N(Cc1ccccc1Cl)C1CCS(=O)(=O)C1 (stereo not given)	-7.3%[38.3 µM]	-16	-3	0.3	-6	2	-1%
Cc1cccc(Nc2nccc(N(C)C)c2C#N)c1	-1.4%	6	-3	-1.9	14	1	6%
CCOc1ccc(CCNC(=O)CCc2nc(-c3ccc(OC)cc3)no2)cc1OCC	0.2%	1	6	-0.5	1	-34	17%
Cc1cccc(-n2ncc3c(N)ncnc32)c1	-1.6%	3	-4	-2.5	-12	7	3%
COc1ccc(-c2onc3ccc(C(C)=O)cc23)cc1	7.9%	-7	5	?	nt	28	16%
COc1ccc(CN2CCNC(=O)C2CC(=O)NC2CCC2)c(OC)c1 (stereo not given)	0.2%	24	-1	-1.2	-1	3	20%
CC1=C(C(N)=O)C(c2cccc(OCc3ccccc3)c2)n2nnnc2N1 (stereo not given)	-0.1%	5	-1	-1.8	1	5	9%
O=C(CNC(=O)c1ccc(Cl)cc1)N/N=C/C=C/c1ccccc1	4.8%	4	7	1.0	-25	-5	11%

Source: PubChem
